# High-throughput results: PubChem, Fisher Drug Discovery Resource Center
# NPYLR7 ag: activates Aedes aegypti NPYLR7 receptor. AID 1259423. 0.15% of 270,000 active. HEK293T NPYLR7/Galpha15, GCaMP6s calcium fluorescence. activation, % at 10 µM; in the data active means activation above about 40%;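 further: 0% = vehicle and 100% = reference agonist at the receptor; some compounds past the cut are filed as inactive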
# NPYLR7 ag max-min: further read-out of NPYLR7 ag, marked with its call; activation, %; measured here: Max-Min RFU normalised activation; some inactives read as strong as hits;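 span of the calcium signal over five minutes; 0% = vehicle and 100% = native peptide agonist; compound fluorescence can raise it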
# Starred values were filed as active, the others as inactive; & = joins results of further samples. Not all compounds are listed, so the mix of outcomes need not match the whole.
SMILES,NPYLR7 ag,NPYLR7 ag max-min
CCCCc1ccc(C(=O)N2CCN(C(=O)CCN3CCc4sccc4C3c3ccccc3)CC2C)cc1 (stereo not drawn),14,7
CCc1cc(N2CCN3CCN(C)CC3C2)nc(N2CCOCC2)n1 (stereo not drawn),8,4
CC(Cn1cncn1)C(=O)NCc1cccnc1-n1cnc2ccccc21 (stereo not drawn),17,8
O=C(Nc1nc(-c2cc([N+](=O)[O-])cs2)cs1)c1nc2ccccc2s1,-2,1
CCN(CC)C(=O)Oc1ccc2c(ccn2Cc2cc(C)cc(C)c2)c1NC(=O)c1cc(F)ccc1Cl,-2,-14
CCc1ccsc1C(=O)Nc1ccccc1Sc1nncs1,-3,-3
N#Cc1ccc(N2CCC(OC(=O)CC(C3CC3)C3CC3)C2=O)cc1 (stereo not drawn),0,-1
CCCc1ccc(CN2CCN3C(=O)CN(C)C(=O)C3C2)o1 (stereo not drawn),1,2
COC(=O)Nc1ccc2[nH]cc(CCNC(C)=O)c2c1,-11,-14
Cc1ccc(CNC(=O)c2c(C)noc2-c2ccccc2Cl)o1,-1,9
CC(C)c1ccc(N2CC(c3nc(-c4ccccn4)no3)CC2=O)cc1 (stereo not drawn),9,15
O=C(Nc1ccc2oc(C(F)(F)F)nc2c1)N(Cc1ccccn1)C1CC1,-7,-7
CCc1c(C(=O)N2CCC3(CCCN(CCOC)C3=O)C2)[nH]c2ccccc12 (stereo not drawn),2,1
Cc1c(C)n2c3c(=O)n(Cc4ccccc4)c(=O)n(C)c3nc2n1C1CCCCC1,10,6
CN(Cc1ccccc1)C1CCCN(C(=O)CN2C(=O)c3ccccc3C2=O)C1 (stereo not drawn),7,8
O=C(CCc1ccsc1)NCC1CCC2(CC1)OCCO2,-4,-5
CCC(C)N(Cc1ccc(OC)c(OS(=O)(=O)C(C)C)c1)C(=O)Nc1ccccc1OC (stereo not drawn),12,16
CC(=O)NCCNC(=O)C1(C)Cc2c(-c3ccc(NC(C)=O)cc3)ccnc2O1 (stereo not drawn),-7,-11
O=C(CC1SC(=Nc2ccc(OC(F)(F)F)cc2)N(C2CC2)C1=O)NC1CC1 (stereo not drawn),7,5
Cc1ccc(-c2nn(CC(=O)Nc3ccc(Cl)cc3)c(=O)c3nc(C)sc23)cc1,1,-3
Cc1cc(C)cc(COc2coc(CN3CCN(S(=O)(=O)c4cc(F)cc(Cl)c4C)CC3)cc2=O)c1,4,3
COCCN(Cc1ccc(OC)c(OS(=O)(=O)c2ccc(F)cc2)c1)C(=O)C12CC3CC(CC(C3)C1)C2,0,19
CNC1(c2ccccc2Cl)CCC/C(=C/c2cccs2)C1=O (stereo not drawn),-2,-8
CCN(CC)C(=O)[C@@H]1C[C@H](N)CN1C(=O)c1c[nH]n2ccnc12,11,7
COCCCN1C(=O)/C(=C/c2ccc(CNS(=O)(=O)c3ccccc3)o2)C(C(=O)OC)=C1C,1,-1
COCCN(CCOC)C(=O)/C=C/c1cn(S(=O)(=O)c2cccc3ccccc23)c2ccccc12,-6,-11
CSc1sc(SC)c(C=O)c1Br,-2,2
Cc1nonc1C1CCCN1Cc1cn[nH]c1-c1ccc(-c2ccccc2)cc1 (stereo not drawn),0,-1
CCC(C(=O)NCc1nccc(N)n1)c1ccccc1 (stereo not drawn),6,3
CN(C)C(=O)c1cc(-c2cnc(-c3ccccn3)nc2)nc2cc(F)ccc12,2,1

# Complete entries from above:
# `CSc1sc(SC)c(C=O)c1Br` across the screens: NPYLR7 ag = -2; NPYLR7 ag max-min = 2
# `COCCCN1C(=O)/C(=C/c2ccc(CNS(=O)(=O)c3ccccc3)o2)C(C(=O)OC)=C1C` across the screens: NPYLR7 ag = 1; NPYLR7 ag max-min = -1

# (next part)
SMILES,NPYLR7 ag,NPYLR7 ag max-min
CCOC(=O)C1(Cc2ccc(OC)cc2)CCN(C(=O)CCCn2cncn2)CC1,13,8
CCC(C)CN(CC(=O)N1CCc2sccc2C1COc1ccc(Cl)cc1)C(=O)Cc1ccccc1 (stereo not drawn),-2,1
C=C(C)Cn1c(C(=O)N2CCN(C(=O)CCC(=O)OCC)C(C)C2)cc2ccoc21 (stereo not drawn),57*,69*
Cc1nn(C)cc1CN(C)C(=O)c1ccccc1C(F)(F)F,2,-1
O=C(NCCCCN1C(=O)CSC1=O)c1csc(-c2ccc(Cl)cc2)n1,1,0
Cc1nc(CNc2cccc3c2CCCC3)no1,0,-2
CCn1nc(C(=O)N(C)Cc2ccco2)c2c1CCC(NCCSC)C2 (stereo not drawn),1,-4
CN1C(C)(C)CC(NC(=O)c2csc(NCCc3ccccc3)n2)CC1(C)C,-1,-2
CCc1ncc(CN2CCCC(C(=O)Nc3cccc(-c4cc5ccccc5[nH]4)c3)C2)cn1 (stereo not drawn),-1&13,-4&3
CCCCCCc1ccc(C(=O)N(CC)CC(=O)Nc2cc(-c3ccccc3)nn2-c2ccc(OC)cc2)cc1,23,19
O=C(c1ccc2c(c1)OCCCO2)N1CCC(Nc2ccc(F)cc2)CC1,1,-1
Cc1ccc(C(=O)N2CCCCC2CCn2ccnc2)cc1NC(=O)C1CC1 (stereo not drawn),5,4
COc1cc(-c2ccnc(N3CCN(S(=O)(=O)c4ccc(C(F)(F)F)cc4Cl)CC3)n2)cc(OC)c1OC,8,-2
O=C(/C=C/c1ccc2c(c1)OCO2)NC12CC3CC(CC(C3)C1)C2,4,4
Cc1ccccc1C(=O)N1CCN(c2ccccc2-c2ccccc2)C(=O)C1C (stereo not drawn),-3,8
O=C(CSc1nccn2nc(-c3ccc(Cl)cc3)cc12)NCc1ccc(F)cc1,-1,-6
Cc1nccn1-c1cc(CNc2ccc(Cl)cc2C#N)ccn1,-1,10
CCOc1cccc(C2C(C(=O)OC)=C(C)N(C)C(C)=C2C(=O)OC)c1,-2,-3
Cc1cc(OC(=O)c2ccc3ccccc3c2)c([N+](=O)[O-])c(=O)[nH]1,-2,-2
COCCn1c(=NC(=O)c2cc(C)n(C)n2)sc2cc(F)cc(F)c21,6,1
O=c1[nH]cnc2cc(F)c([N+](=O)[O-])cc12,0,2
O=c1c2cnc3nc4ccccc4n3c2ccn1-c1ccccc1Cl,-4,-12
COc1ccc(S(=O)(=O)N2CCC(Cc3ccc4c(c3)OCO4)CC2)cc1OC,1,4
CCOc1cccc(C=C2SC(=S)N(C)C2=O)c1OC,2,2
Cc1ccc(C2(O)CCN(C(=O)c3cn4ccsc4n3)CC2)nc1,3,0
CC1=NC2=C(C(=O)CCC2)C(c2cccnc2)C1C#N (stereo not drawn),12,12
Cc1cccc(NC(=O)CSc2nc(=O)n3cc(Cl)ccc3n2)c1,2,-2
C=CCNc1ccccc1C(=O)NC(CC)CO (stereo not drawn),20,11
Cc1cc(C)c(-c2csc(NC(=O)CCl)n2)cc1C,-5,-9
COc1ccc(OCCSc2nc3ccc(Br)cc3[nH]2)cc1,-4,-10
Cc1cc(NC2CCCCCCC2)nc(-c2ccncc2)n1,2,-2
CC(C)(CN1CCOCC1)CN1CCC2(CCCN(Cc3ccc(F)cc3)C2)C1 (stereo not drawn),-14,-9
CN1CCN(C(=O)C2=COC3=NC(=O)N(Cc4ccccc4C(F)(F)F)CCN23)CC1,0,-4
CC(C)c1nnc(-c2cc3ccccc3n2CC(=O)N2CCCCCC2)o1,-2,-2
O=C(NCC(F)(F)F)c1cn(-c2ccc(Br)cc2)nn1,11,9
COc1nc(C(=O)NCCc2ncn[nH]2)cc2ccccc12,-2,30
COC(=O)c1ccc(NC(=O)CN2C(=O)c3ccccc3C2=O)cc1,-4,-9
CCOC(=O)c1sc(N)c(C#N)c1COC(=O)C12CC3CC(CC(Br)(C3)C1)C2,6,9
COc1cccc(CC2CN(C(=O)CCn3c(C)cccc3=O)CCO2)c1 (stereo not drawn),8,3
O=C(CCc1c[nH]c2ccccc12)N1CCN(Cc2cc(=O)n3ccccc3n2)CC1,8,3
COC(=O)CN1CC2(CCN(C(=O)CCc3ccccc3O)CC2)OC1=O,7,8
Cc1ccccc1-c1ncc(CN2CCC(Oc3ncccn3)CC2)s1,-1,0
CCCCN(C)S(=O)(=O)NCc1cccc(N2CCCC2=O)c1,3,0
N#Cc1c(N)nc2c(c1-c1ccncc1)CCCCC2,2,-1
O=C(c1cc2ccsc2n1Cc1ccccc1F)N1CCN(C/C=C/c2ccccc2)CC1,1,8
CCn1c(C2CCN(C(=O)c3cc4c(s3)CCCC4)CC2)nn(C)c1=O,7,4
Cc1noc(C)c1S(=O)(=O)N1CCN(c2cc(-n3ccnc3)ncn2)CC1,-5,-6
CCOC(=O)N1CCC(Nc2nncc(-c3ccccc3)n2)CC1,1&-9,1&-10
CCC1CN(C(=O)c2cc3ncccn3n2)CCC(=O)N1Cc1ccccc1 (stereo not drawn),2,-1
CC(C)CCSc1nnc2n1CCN2c1ccccc1,-1,-3
O=C(NC(C(=O)N1CCCCC1)C1CCN(C(=O)C2CCCC2)CC1)c1ccc2c(c1)OCO2 (stereo not drawn),3,5
CC(=O)c1ccc(N2C(=O)C3CC=CCC3C2=O)cc1 (stereo not drawn),9,7
Nc1nc(SCC(=O)NCc2ccc(F)cc2)[nH]c(=O)c1NC(=O)c1ccc(F)cc1,-5,-11
COc1cccc(NC(=O)Nc2nccn(-c3cccc(Cl)c3)c2=O)c1,1,-4
CC(Nc1cncc(Cl)n1)c1ccc(N2CCOC2=O)cc1 (stereo not drawn),-4,-9
Cn1c(-c2nccn2-c2ccc(Oc3nn[nH]n3)cc2)nc2ccccc21,-4,-6
O=C(NCC1CC1)[C@@]1(OCc2cccc(Cl)c2)CC(OCc2cccc(OC(F)(F)F)c2)[C@H](O)[C@H](O)C1 (stereo partly drawn),5,15
O=C(O)[C@H]1C[C@]2(CCCCNC2=O)N(C(=O)c2ccc(F)cc2)[C@H]1c1ccco1,6,13
O=C(c1cc(F)c(F)cc1F)N1CCN(C(c2ccccc2)c2ccc(Cl)cc2)CC1 (stereo not drawn),-3,3
Cc1ccc2cc(-c3nccn3CCN(C)C)c(N3CCOCC3)nc2c1,14,2

# (cont.)
SMILES,NPYLR7 ag,NPYLR7 ag max-min
O=C(NN1C(=O)CSC1=S)c1csc2c1CCCC2,5,4
CCCCC(CC)C(=O)Nc1c(-c2ccc(C)cc2)nc2ccc(C)cn12 (stereo not drawn),-3,-2
N#CCCN(CCC#N)C(=O)CSCC(O)c1ccccc1 (stereo not drawn),5,3
N#CC1C(=N)C(C#N)(C#N)C(c2ccc(OC(F)F)cc2)C=C1C1CC1 (stereo not drawn),-18,-27
COCC(=O)N1CCc2[nH]c3c(Cl)cc(Cl)cc3c2C1,1,2
CSC1CCC(N(C)CC(=O)NCc2ccc(OC(F)F)cc2)C1 (stereo not drawn),-2,-3
COCCN(CC(=O)N(CCc1c[nH]c2ccccc12)Cc1ccccc1OC)C(=O)Nc1cccc(C#N)c1,22,34
CCOC(=O)c1c(C)n(-c2ccc(I)cc2)c2ccc(OC)cc12,-5,-14
Cc1nc(C(F)(F)F)ccc1C(=O)N1CCC1(C)C(=O)NS(=O)(=O)c1ccccc1Cl (stereo not drawn),4,3
O=C(NC(c1ccccc1)c1cccs1)C1CCN(S(=O)(=O)c2ccccc2F)CC1 (stereo not drawn),-1,7
C=CCNC(=O)CN1CCC(Cn2c(COc3ccccc3)nc3ccccc32)CC1,-3,-5
CC(C)(O)[C@@H]1Cc2cc3ccc(=O)oc3cc2O1,0,-1
CC(C)CN(CC1CN(Cc2ccco2)CCO1)C(=O)Cc1ccccc1 (stereo not drawn),5,4
COc1ccccc1NC(=O)Cn1nc(C2CC2)c2cnn(-c3ccccc3)c2c1=O,10,4
Cc1cccc(-c2cc(N)n(-c3ccc(C(=O)N(CCC#N)Cc4ccccc4)cc3)n2)c1,-2,-7

# By substructure, the compounds so far containing a Cl atom (19)
SMILES,NPYLR7 ag,NPYLR7 ag max-min
CCN(CC)C(=O)Oc1ccc2c(ccn2Cc2cc(C)cc(C)c2)c1NC(=O)c1cc(F)ccc1Cl,-2,-14
Cc1ccc(CNC(=O)c2c(C)noc2-c2ccccc2Cl)o1,-1,9
Cc1ccc(-c2nn(CC(=O)Nc3ccc(Cl)cc3)c(=O)c3nc(C)sc23)cc1,1,-3
Cc1cc(C)cc(COc2coc(CN3CCN(S(=O)(=O)c4cc(F)cc(Cl)c4C)CC3)cc2=O)c1,4,3
CNC1(c2ccccc2Cl)CCC/C(=C/c2cccs2)C1=O (stereo not drawn),-2,-8
CCC(C)CN(CC(=O)N1CCc2sccc2C1COc1ccc(Cl)cc1)C(=O)Cc1ccccc1 (stereo not drawn),-2,1
O=C(NCCCCN1C(=O)CSC1=O)c1csc(-c2ccc(Cl)cc2)n1,1,0
COc1cc(-c2ccnc(N3CCN(S(=O)(=O)c4ccc(C(F)(F)F)cc4Cl)CC3)n2)cc(OC)c1OC,8,-2
O=C(CSc1nccn2nc(-c3ccc(Cl)cc3)cc12)NCc1ccc(F)cc1,-1,-6
Cc1nccn1-c1cc(CNc2ccc(Cl)cc2C#N)ccn1,-1,10
O=c1c2cnc3nc4ccccc4n3c2ccn1-c1ccccc1Cl,-4,-12
Cc1cccc(NC(=O)CSc2nc(=O)n3cc(Cl)ccc3n2)c1,2,-2
Cc1cc(C)c(-c2csc(NC(=O)CCl)n2)cc1C,-5,-9
COc1cccc(NC(=O)Nc2nccn(-c3cccc(Cl)c3)c2=O)c1,1,-4
CC(Nc1cncc(Cl)n1)c1ccc(N2CCOC2=O)cc1 (stereo not drawn),-4,-9
O=C(NCC1CC1)[C@@]1(OCc2cccc(Cl)c2)CC(OCc2cccc(OC(F)(F)F)c2)[C@H](O)[C@H](O)C1 (stereo partly drawn),5,15
O=C(c1cc(F)c(F)cc1F)N1CCN(C(c2ccccc2)c2ccc(Cl)cc2)CC1 (stereo not drawn),-3,3
COCC(=O)N1CCc2[nH]c3c(Cl)cc(Cl)cc3c2C1,1,2
Cc1nc(C(F)(F)F)ccc1C(=O)N1CCC1(C)C(=O)NS(=O)(=O)c1ccccc1Cl (stereo not drawn),4,3
